From PubChem BioAssay
Vaccinia inh: Vaccinia orthopox stage-specific inhibition | Vaccinia-infected cells, mCherry/Venus stage reporter fluorescence; active compounds read low; some inactives read as strong as hits | activity change (mCherry), % (concentration not given with the values) | 89,000 tested, 0.01% active;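 active = mCherry past -33% and 40 or more points under the early reporter, replicates agreeing; inconclusive = past -33% without that gap or agreement; tested in A549 cells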;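 also: scaled between vehicle wells and reference inhibitor wells; 23 nL library stock went into each well; one replicate is shown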
Vaccinia inh Venus: further read-out of Vaccinia inh, marked with its call; activity change (Venus), %; measured here: Venus reporter, other viral stage;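 negative = less Venus signal; first of two replicates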
Active calls of the source: *; ? = inconclusive; . = not tested or not shown; & = joins results of further samples. The list is partial, so the mix of outcomes need not match the whole.

SMILES	Vaccinia inh	Vaccinia inh Venus
COc1ccccc1S(=O)(=O)N(C)C[C@H]1Oc2cc(C#CCC3CCCC3)ccc2S(=O)(=O)N([C@H](C)CO)C[C@H]1C	?	-20
C[C@@H]1CN([C@@H](C)CO)C(=O)CCCn2cc(nn2)CO[C@H]1CN(C)C(=O)Nc1cccc2ccccc12	19	28
C[C@@H]1CN([C@H](C)CO)C(=O)Cc2cc(NC(=O)CCCCCC(=O)Nc3ccccc3N)ccc2O[C@H]1CN(C)C(=O)NC1CCCCC1	-4	14
C[C@H]1CCCCO[C@@H](CN(C)CC2CCCCC2)[C@@H](C)CN([C@@H](C)CO)C(=O)c2cc(NS(C)(=O)=O)ccc2O1	-19	-9
CN1C[C@H]2[C@@H](c3ccccc31)[C@H](CO)N2C(=O)C1CCCC1	0	6
C[C@H](CO)N1C[C@H](C)[C@H](CN(C)S(=O)(=O)c2cn(C)cn2)Oc2ccc(NC(=O)Nc3ccccc3)cc2CC1=O	8	8
COc1ccccc1NC(=O)N(C)C[C@H]1Oc2ncc(C#CCN(C)C)cc2C(=O)N([C@H](C)CO)C[C@H]1C	0&9	-4&9
C[C@H](CO)N1C[C@H](C)[C@@H](CN(C)Cc2ccc(C(=O)Nc3ccccc3N)cc2)Oc2ccc(N(C)C)cc2CC1=O	-30	-34
C[C@H]1CN([C@@H](C)CO)S(=O)(=O)c2ccc(C#Cc3ccncc3)cc2O[C@H]1CN(C)C(=O)Nc1ccc2c(c1)OCO2	?	.
CC(C)NC(=O)N(C)C[C@H]1Oc2cc(C#Cc3cccc(F)c3)ccc2S(=O)(=O)N([C@H](C)CO)C[C@H]1C	?	.
C[C@H]1CN([C@@H](C)CO)C(=O)c2c(c3ccccc3n2C)-c2ccccc2CO[C@H]1CN(C)C(=O)Cc1ccccc1	-23	-21
COc1ccc(S(=O)(=O)Nc2ccc3c(c2)C(=O)N([C@H](C)CO)C[C@H](C)[C@@H](CN(C)S(=O)(=O)c2ccccc2)OCCCC[C@@H](C)O3)cc1	-3	3
COc1cccc(-c2ccc3c(c2)O[C@H](CN(C)Cc2cncnc2)[C@@H](C)CN([C@@H](C)CO)S3(=O)=O)c1	-23	-20
Cc1ccc(S(=O)(=O)N2CC[C@@H]3[C@H]2c2cc(-c4ccccc4F)ccc2N(C)[C@H]3CO)cc1	?	.
CCO[C@H]1OC(C(=O)NCc2nc3ccccc3[nH]2)=C[C@@H](c2csc3ccccc23)[C@@H]1CCCO	-4	-5
COc1cccc(C#Cc2cnc3c(c2)C(=O)N([C@@H](C)CO)C[C@H](C)[C@@H](CN(C)C(=O)C2CCCCC2)O3)c1	-28	-17
COc1ccc(NC(=O)Nc2ccc3c(c2)C(=O)N([C@@H](C)CO)C[C@H](C)[C@@H](CN(C)C(=O)Nc2ccc(F)cc2)O3)cc1	7	5
COc1ccc2c3c(n(C)c2c1)[C@H](CO)N(C(=O)c1ccccc1)CC31CN(C(=O)c2ccccc2)C1	-19	-17
C[C@@H]1CN([C@H](C)CO)C(=O)c2cc(NC(=O)CCC(F)(F)F)ccc2O[C@@H](C)CCCCO[C@H]1CN(C)S(=O)(=O)c1cn(C)cn1	22	16
N#Cc1ccc(-c2ccc(C3[C@@H]4CN(S(=O)(=O)c5ccccc5F)C[C@H]3N4)cc2)cc1 (stereo partly drawn)	-2	-2
Cc1noc(C)c1S(=O)(=O)Nc1ccc2c(c1)C(=O)N([C@@H](C)CO)C[C@H](C)[C@H](CN(C)CC1CCCCC1)O2	17	13
COc1ccc(NC(=O)Nc2ccc3c(c2)C(=O)N([C@H](C)CO)C[C@@H](C)[C@H](CN(C)S(=O)(=O)c2cccs2)OCCCC[C@H](C)O3)cc1	-3	3
Cc1cc(C(=O)Nc2cccc3c2O[C@H](CN(C)C(=O)Nc2ccc4c(c2)OCO4)[C@@H](C)CN([C@@H](C)CO)C3=O)n(C)n1	37	21
C[C@@H]1CN([C@H](C)CO)C(=O)c2cc(NC(=O)Nc3ccc(C(F)(F)F)cc3)ccc2O[C@@H](C)CCCCO[C@@H]1CN(C)S(=O)(=O)c1ccccc1	-3	-6
COc1ccc(CN(C)C[C@@H]2Oc3ccc(NS(=O)(=O)c4ccccc4)cc3C(=O)N([C@@H](C)CO)C[C@H]2C)cc1	24	8

10 structures from above, ordered by SMILES length, high to low.
SMILES	Vaccinia inh	Vaccinia inh Venus
C[C@@H]1CN([C@H](C)CO)C(=O)c2cc(NC(=O)Nc3ccc(C(F)(F)F)cc3)ccc2O[C@@H](C)CCCCO[C@@H]1CN(C)S(=O)(=O)c1ccccc1	-3	-6
COc1ccc(NC(=O)Nc2ccc3c(c2)C(=O)N([C@H](C)CO)C[C@@H](C)[C@H](CN(C)S(=O)(=O)c2cccs2)OCCCC[C@H](C)O3)cc1	-3	3
C[C@@H]1CN([C@H](C)CO)C(=O)c2cc(NC(=O)CCC(F)(F)F)ccc2O[C@@H](C)CCCCO[C@H]1CN(C)S(=O)(=O)c1cn(C)cn1	22	16
Cc1cc(C(=O)Nc2cccc3c2O[C@H](CN(C)C(=O)Nc2ccc4c(c2)OCO4)[C@@H](C)CN([C@@H](C)CO)C3=O)n(C)n1	37	21
Cc1noc(C)c1S(=O)(=O)Nc1ccc2c(c1)C(=O)N([C@@H](C)CO)C[C@H](C)[C@H](CN(C)CC1CCCCC1)O2	17	13
COc1cccc(C#Cc2cnc3c(c2)C(=O)N([C@@H](C)CO)C[C@H](C)[C@@H](CN(C)C(=O)C2CCCCC2)O3)c1	-28	-17
C[C@H](CO)N1C[C@H](C)[C@@H](CN(C)Cc2ccc(C(=O)Nc3ccccc3N)cc2)Oc2ccc(N(C)C)cc2CC1=O	-30	-34
COc1ccccc1NC(=O)N(C)C[C@H]1Oc2ncc(C#CCN(C)C)cc2C(=O)N([C@H](C)CO)C[C@H]1C	0&9	-4&9
CCO[C@H]1OC(C(=O)NCc2nc3ccccc3[nH]2)=C[C@@H](c2csc3ccccc23)[C@@H]1CCCO	-4	-5
CN1C[C@H]2[C@@H](c3ccccc31)[C@H](CO)N2C(=O)C1CCCC1	0	6

Further entries
SMILES	Vaccinia inh	Vaccinia inh Venus
O=S(=O)(c1cccs1)N1CCCCN2[C@H](CO)[C@H](c3ccc(C4=CCCCC4)cc3)[C@H]2C1	?	.
Cc1cc(C(=O)Nc2cccc3c2O[C@@H](CN(C)C)[C@@H](C)CN([C@H](C)CO)C3=O)n(C)n1	-3	4
COCC#Cc1ccc([C@@H]2[C@H]3CN(C(=O)COC)CCCCN3[C@H]2CO)cc1	33	10
C[C@@H]1CN([C@@H](C)CO)C(=O)c2cc(NC(=O)c3ccncc3)ccc2O[C@@H](C)CCCCO[C@H]1CN(C)C(=O)c1ccccc1	17	8
C[C@@H]1CN([C@@H](C)CO)C(=O)Cc2cc(NC(=O)Cc3cn(C)c4ccccc34)ccc2O[C@H]1CN(C)S(=O)(=O)c1ccc(F)cc1	21	14
C[C@@H]1CN([C@@H](C)CO)S(=O)(=O)c2ccc(-c3cncnc3)cc2O[C@H]1CN(C)Cc1ccccn1	7	5
COc1ccc(NC(=O)Nc2ccc3c(c2)CC(=O)N([C@@H](C)CO)C[C@@H](C)[C@@H](CN(C)S(=O)(=O)c2ccc(F)cc2)O3)cc1	-4	0
C[C@H](CO)N1C[C@H](C)[C@H](CN(C)C(=O)NC2CCCCC2)OCCCC[C@H](C)Oc2ccc(NC(=O)Nc3ccc(F)cc3)cc2C1=O	-7	2
CN(C)CC(=O)N[C@H]1CC[C@H](CCn2cc(C3CCCC3)nn2)O[C@H]1CO	7	11
CN(C)C(=O)c1ccc(-c2ccc(C3[C@H]4CNC[C@@H]3N4S(=O)(=O)c3ccccc3F)cc2)cc1 (stereo partly drawn)	11	7
C[C@H]1CN([C@@H](C)CO)C(=O)c2cc(-c3cccc(F)c3)cnc2O[C@@H]1CN(C)Cc1cccnc1	10	-7
CN(C)CC#Cc1ccc([C@@H]2[C@H]3CN(C(=O)NC4CCCC4)CCCCN3[C@H]2CO)cc1	3	-5
C[C@@H]1CN([C@H](C)CO)S(=O)(=O)c2ccc(Br)cc2O[C@@H]1CN(C)Cc1ccc(C(=O)O)cc1	21	4
O=C(Nc1ccccc1F)N[C@@H]1CC[C@H](CCNC(=O)C2CCOCC2)O[C@H]1CO	7	4
COc1cccc(S(=O)(=O)Nc2ccc3c(c2)[C@@H]2C[C@@H](CC(=O)N(C)C)O[C@H](CO)[C@@H]2O3)c1	5	1
COCc1cn(CC[C@H]2CC[C@@H](NC(=O)c3ccncc3)[C@H](CO)O2)nn1	0	2
CN1CCN(C(=O)C[C@@H]2CC[C@@H]3[C@H](COC[C@@H](O)CN3CC3CC3)O2)CC1	-6	-1
O=C(C[C@H]1C[C@@H]2c3cc(NC(=O)c4ccc5c(c4)OCO5)ccc3O[C@@H]2[C@H](CO)O1)NC1CCCCC1	-12	-4
CO[C@H]1CN(C)C(=O)c2cc(NC(=O)C3CC3)ccc2OC[C@H](C)N(Cc2ccccc2)C[C@H]1C	-10	-8
COCC(=O)Nc1ccc2c(c1)[C@H]1C[C@@H](CC(=O)NCc3cccnc3)O[C@H](CO)[C@H]1O2	-16	-8
O=C(C[C@H]1CC[C@H]2[C@@H](COC[C@H](O)CN2CC2CCCCC2)O1)NCC1CC1	11	12
COc1ccc(NC(=O)N(C)C[C@H]2Oc3c(NC(=O)c4ccncc4)cccc3C(=O)N([C@H](C)CO)C[C@@H]2C)cc1	29	17
Cc1ccc(S(=O)(=O)Nc2ccc3c(c2)CC(=O)N([C@@H](C)CO)C[C@@H](C)[C@H](CN(C)Cc2ccc(Oc4ccccc4)cc2)O3)cc1	?	.
COc1ccc2c3c([nH]c2c1)[C@H](CO)N(C(C)=O)CC31CN(S(=O)(=O)c2ccccc2)C1	12	3
CC(C)NC(=O)Nc1ccc2c(c1)C(=O)N([C@@H](C)CO)C[C@@H](C)[C@@H](CN(C)S(=O)(=O)c1ccc(Cl)cc1)OCCCC[C@@H](C)O2	-25	-15
(cont.)
SMILES	Vaccinia inh	Vaccinia inh Venus
CN(C)C(=O)C[C@@H]1C[C@H]2c3cc(NC(=O)Nc4ccccc4F)ccc3O[C@H]2[C@H](CO)O1	15	17
CO[C@@H]1CN(C)C(=O)c2ccc(NC(=O)Nc3ccccc3)cc2OC[C@@H](C)N(C(=O)CN(C)C)C[C@H]1C	6	11
O=C(C[C@@H]1C[C@H]2c3cc(NS(=O)(=O)c4ccc(F)cc4)ccc3O[C@H]2[C@H](CO)O1)NCc1ccccn1	-8	-3
COc1ccc(S(=O)(=O)N(C)C[C@H]2Oc3c(NS(=O)(=O)c4cn(C)cn4)cccc3C(=O)N([C@H](C)CO)C[C@H]2C)cc1	0	1
CCC(=O)N(C)C[C@H]1[C@H](c2ccc(-c3cccnc3)cc2)[C@@H](CO)N1C(C)=O	12	3
CN(C)C(=O)C[C@@H]1C=C[C@@H](NS(=O)(=O)c2ccccc2)[C@@H](CO)O1	1	4
COc1ccc(S(=O)(=O)Nc2ccc3c(c2)C(=O)N([C@@H](C)CO)C[C@@H](C)[C@H](CN(C)Cc2ccc4c(c2)OCO4)OCCCC[C@@H](C)O3)cc1	?	.
OC[C@@H]1[C@H](c2ccc(C#Cc3cccnc3)cc2)[C@H]2CN(Cc3ccccc3F)CCCCN12	?	.
CNC(=O)C[C@H]1CC[C@@H]2[C@H](COc3ccc(NC(=O)Nc4ccc(C)cc4)cc3C(=O)N2C)O1	6	0
N#Cc1cccc(-c2ccc([C@H]3[C@@H](CO)N4CCCCN(C(=O)Cc5cccnc5)C[C@@H]34)cc2)c1	6	-2
CNC[C@@H]1OCCCC[C@H](C)Oc2ccc(NS(=O)(=O)c3ccccc3)cc2C(=O)N([C@H](C)CO)C[C@@H]1C	17	4
C[C@H]1CN([C@@H](C)CO)C(=O)CCCn2nncc2CO[C@H]1CN(C)C(=O)Nc1ccc(-c2cccs2)cc1	0	9
COc1ccc(S(=O)(=O)N(C)C[C@@H]2Oc3ccc(NC(=O)Cc4ccccc4)cc3CC(=O)N([C@H](C)CO)C[C@@H]2C)cc1	-11	-6
C[C@@H]1CN([C@H](C)CO)C(=O)c2cc(-c3ccc(C#N)cc3)cnc2O[C@H]1CN(C)Cc1ccccn1	-2	2
Cc1noc(C)c1NC(=O)Nc1ccc2c(c1)CC(=O)N([C@H](C)CO)C[C@@H](C)[C@@H](CN(C)CC1CC1)O2	20	21
O=C(Cc1ccncc1)NCC[C@H]1CC[C@H](NS(=O)(=O)c2ccccc2Cl)[C@@H](CO)O1	4	4
O=C(Cc1ccccn1)NCC[C@@H]1CC[C@@H](NC(=O)Nc2ccc(F)cc2)[C@H](CO)O1	10	3
N#C[C@H]1[C@@H](c2ccc(C#CC3CCCCC3)cc2)[C@H](CO)N1S(=O)(=O)c1ccccc1	?	.
CCS(=O)(=O)N1CCCCN2[C@H](CO)[C@@H](c3ccc(-c4ccccc4C)cc3)[C@@H]2C1	-7	-11
C[C@@H]1CN([C@H](C)CO)C(=O)c2cc(NS(C)(=O)=O)ccc2O[C@@H](C)CCCCO[C@@H]1CN(C)C(=O)NC1CCCCC1	10	6
CC(C)NC(=O)Nc1ccc2c(c1)CC(=O)N([C@@H](C)CO)C[C@@H](C)[C@H](CN(C)S(=O)(=O)c1ccc(Cl)cc1)O2	-3	1
C[C@@H]1CCCCO[C@H](CN(C)Cc2ccncc2)[C@H](C)CN([C@@H](C)CO)C(=O)c2cc(NC(=O)CCC(F)(F)F)ccc2O1	-17	-1
Cc1cccc(-c2ccc([C@@H]3[C@@H](CO)N4CCCCN(C(=O)c5ccc6c(c5)OCO6)C[C@@H]34)cc2)c1	-32	-25
Cc1noc(C)c1NC(=O)N(C)C[C@H]1Oc2ncc(C#CCC(C)C)cc2C(=O)N([C@@H](C)CO)C[C@H]1C	-9	-14
COc1ccc(S(=O)(=O)N2CCCCN3[C@H](C2)[C@H](c2ccc(C#CC(C)C)cc2)[C@@H]3CO)cc1	?	.
C[C@H]1CN([C@@H](C)CO)C(=O)c2cc(C#CCN(C)C)cnc2O[C@@H]1CN(C)S(=O)(=O)c1cn(C)cn1	23	-2
COC(=O)C[C@H]1CC[C@@H]2[C@@H](COc3ccc(NC(=O)c4cccc(Cl)c4)cc3C(=O)N2C)O1	-16	-10
Cc1ccccc1CN(C)C[C@H]1OCc2cnnn2CCCC(=O)N([C@H](C)CO)C[C@@H]1C	7	4
